gsp ag = activates gsp, the McCune-Albright syndrome mutation. 340,000 compounds, 0.13% hits. Potency, µM (highest dose often 76.9 µM), without a hit: at the highest dose activation (cAMP increase), hits mostly activators. gsp mutant cells, cAMP HTRF, 30 min; control for the full effect not named in the record; active = well fitted activation curve with a large enough effect; inconclusive = small, poorly fitted or top-dose-only effect, or another doubt; inactive = no such curve, though single readings can be large or run the other way; cell line not stated here;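 note: phosphodiesterase inhibitor Ro 20-1724 added with compounds to block cAMP breakdown; potency is the fitted concentration of half-maximal effect; nearly all actives have a fitted effect of over 60% in size; about a fifth of the inactives were tested at one dose only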
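Cells stably selected in G418 were plated at 2000/well, grown 16-24 hr, then given compounds in DMSO with the PDE inhibitor […] (300 uM solution added) for 30 min at 37C; cAMP was read by HTRF.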
gsp antag = gsp mutant antagonism; AID 624288; 340,000 compounds, 0.4% hits; gsp-mutant cells, cAMP HTRF, 30 min; control for the full effect not named in the record; Potency, µM (top dose mostly 76.9 µM), for the others: top-dose activity change, negative = inhibition, most hits filed as inhibitors; active = falling curve of any shape with a large fitted effect; inconclusive = falling curve, mostly with a smaller effect; inactive = flat or rising curve; cell line not stated here;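 note: intracellular cAMP measured with PDE inhibitor Ro 20-1724 present during compound exposure; potency is the fitted concentration of half-maximal effect; % is set by controls: 0 for no effect and ±100 for the full control effect; nearly all actives have a fitted effect of over 65% in size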
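Cells in G418 medium, seeded 16-24 h, 37C; buffer exchange to DPBS + 1 mM CaCl2, 0.5 mM MgCl2, 0.05% BSA; cpds in DMSO + […] (300 uM stock), 30 min 37C; HTRF cAMP detection.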
PINK1 expr mod = modulators of PINK1 expression | Potency, µM (doses to about 76.6 µM), for inactives: at the highest dose activation (PINK1 increase), most hits filed as activators | PINK1 immunofluorescence, high-content cytometry, 24 h | 410,000 compounds, 0.2% hits; active = well fitted activation curve with a large enough effect; inconclusive = small, poorly fitted or top-dose-only effect; inactive = flat fitted curve, though single readings scatter; cell line not stated here;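 note: potency is the fitted concentration of half-maximal effect; % of control where 0% means no effect; nearly all actives have a fitted effect of over 65% in size; a mitochondrial uncoupler was the plate control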
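Compound titrations (5 concentrations, 24 h) on a stable cell line; DMSO and CCCP controls. Endpoint: fixed-cell PINK1 immunofluorescence with mitochondrial, cell and nuclear markers, scanned by microplate cytometer.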
ClpP mod = qHTS Assay for Activators of ClpP; ATP-dependent Clp protease proteolytic subunit (Bacillus subtilis (strain 168)), P80244; purified B. subtilis ClpP, FRET peptide cleavage, 20 min; Potency, µM (highest dose often 57.5 µM), for inactives: at the top dose activity change, negative = active; 340,000 compounds, 1.9% hits; AID 651965, 2013; active = well fitted falling curve with a large enough effect; inconclusive = small, poorly fitted or top-dose-only effect; inactive = no such curve, though single readings can be large or run the other way; note: potency is the fitted concentration of half-maximal effect; the source files actives as falling curves though it sought activators and does not explain the sign; nearly all actives have a fitted effect of over 65% in size; many hits overshoot -100%
Target sequence (P80244 whole entry, looked up): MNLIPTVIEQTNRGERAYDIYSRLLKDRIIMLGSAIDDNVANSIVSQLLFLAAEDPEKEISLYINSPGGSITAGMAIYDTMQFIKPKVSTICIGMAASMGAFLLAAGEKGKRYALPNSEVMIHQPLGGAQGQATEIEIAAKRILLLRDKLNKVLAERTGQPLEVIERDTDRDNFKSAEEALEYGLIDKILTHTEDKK
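Purified B. subtilis ClpP, 10 microg/mL final in Tris/HCl pH8 with KCl, BSA, glycerol and Tween-20, cleaved an Abz/nitrotyrosine-quenched decapeptide. Fluorescence (ex 320, em 430) was read at 0 and 20 min at room temperature. Delta was normalized to 5.8 microM ADEP and DMSO/no-enzyme controls.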
Sfp PPTase inh = Sfp phosphopantetheinyl transferase inhibition; Q9F4F7; Biochemical Sfp PPTase activity, qHTS; Potency, µM, without a hit: max response, negative = inhibition, hits mostly inhibitors; 310,000 compounds, 3.5% hits; AID 1490; active = well fitted inhibition curve with a large enough effect; inconclusive = small, poorly fitted or top-dose-only effect, or another doubt; inactive = no such curve, though single readings can be large or run the other way;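 note: the enzyme is Sfp with the accession as filed and its product quenches rhodamine fluorescence; potency is the fitted concentration of half-maximal effect; 0% = enzyme reaction without inhibitor and -100% = no enzyme wells; top concentration of the series not given in the record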
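Fluorescence-quenching assay: 15 nM Sfp-PPTase preincubated 15 min at room temperature with compound, then 5 uM rhodamine-CoA and 12.5 uM BHQ-2-labelled YbbR peptide added. Fluorescence (ex 525/em 598 nm) read at start and after 30 min; difference gives rate.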
Menin-MLL FL inh = menin-MLL binding inhibition, fluorescein peptide. 290,000 tested, under 10 active. FP activity change, % at 61.4 µM. Fluorescence polarization, fluorescein-MLL peptide displacement from menin; inconclusive = falling polarisation curve, or a change in total fluorescence; inactive = total fluorescence flat and polarisation flat or rising; no compound was filed as active; the % refers to the polarisation; negative = inhibition;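 note: % of control where 0% means no effect; inhibitors lower the polarisation; unlabelled MLL peptide was the positive control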
D2 ag = human D2 receptor agonism in beta-arrestin assay | P14416 | DiscoveRx PathHunter D2 beta-arrestin, luminescence, 90 min; 100% = 57 uM dopamine signal | activation, % (test concentration not listed) | 360,000 compounds, 0.084% hits; in the data active = activation above about 40%; inconclusive = about 15% to 40%; inactive = below about 15%; note: compound concentration not given in the record; the text of the record calls up to 30% inactive
Target sequence (P14416 whole entry, looked up): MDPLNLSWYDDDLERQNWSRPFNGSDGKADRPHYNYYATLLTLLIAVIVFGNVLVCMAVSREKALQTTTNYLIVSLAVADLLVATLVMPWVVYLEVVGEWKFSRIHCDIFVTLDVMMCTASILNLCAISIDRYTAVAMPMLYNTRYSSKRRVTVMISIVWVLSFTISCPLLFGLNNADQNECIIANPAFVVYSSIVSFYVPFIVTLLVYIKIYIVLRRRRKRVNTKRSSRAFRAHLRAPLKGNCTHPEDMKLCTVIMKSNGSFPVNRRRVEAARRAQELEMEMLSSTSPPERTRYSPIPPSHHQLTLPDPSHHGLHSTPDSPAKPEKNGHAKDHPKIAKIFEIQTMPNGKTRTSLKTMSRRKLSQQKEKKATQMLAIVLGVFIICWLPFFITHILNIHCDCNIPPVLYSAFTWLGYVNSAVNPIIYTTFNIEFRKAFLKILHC
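Agonist mode: compounds alone added to overnight-plated D2 PathHunter cells for 90 min at 37 C, with 57 uM final dopamine (EC100) defining full response. Beta-arrestin recruitment detected by chemiluminescent reagent, read after 1 h at ambient temperature.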
An asterisk follows results filed as active; ? = inconclusive; · = not tested or not shown; & = joins results of further samples; [ ] = another dose, or the depositor's remark.

compound	gsp ag	gsp antag	PINK1 expr mod	ClpP mod	Sfp PPTase inh	Menin-MLL FL inh	D2 ag
Cc1ccc(C)c(N(CC(=O)NC2CCCCC2)C(=O)c2snc(C(N)=O)c2N)c1	-9%	-13%	2.6%	·	8%	4.0	3.1
CC(C)CC(=O)c1c(O)c(C=O)c(O)c2c1O[C@@]1(C)[C@@H](C2)C[C@H]2C[C@@H]1C2(C)C	·	5%	0.9%	-0.5%	·	·	-2.7
Cc1ccnc(NC(=O)c2ccc(S(=O)(=O)N3CCC(C)CC3)cc2)c1	-6%[15.4 µM]	-13%	-2.5%	·	·	·	-3.9
O=c1[nH]cnc2c1ncn2C1OC(CO)CC1F (stereo unspecified)	·	·	-0.1%	0.2%	·	·	-3.2
COc1ccc(NC(=O)Nc2cccc(C(F)(F)F)c2)cn1	-6%[15.4 µM]	-17%	?	·	-9%	-11	-1.8
CCCn1ncc(CN2CCC(n3nccc3NC(=O)c3ccccc3Cl)CC2)c1C	-52%[inhibitor]	-14%	-1.3%	-2.9%	8%	·	-3.9
CCCCc1c(O)nc(SCC(=O)N2CCOCC2)n(-c2ccc(C)cc2)c1=O	-49%[inhibitor]	·	1.5%	-0.8%	·	·	-0.2
Oc1c(C2=NCCNC(C(F)(F)F)=C2)ccc2ccccc12	-2%[15.4 µM]	-6%	1.4%	·	-23%	1.5	-6.7
CCN(CC)c1ccc2c(Cl)cc(=O)oc2c1	-9%	5%	-2.8%	-6.2%	-13%	19	-2.6
Cc1cc(NC(=O)CS(=O)(=O)c2ccc(F)cc2)no1	5%	12%	-3.3%	2.2%	·	·	-3.4
Cc1ccc(/C=N/N2CCN(C3c4ccccc4-c4ccccc43)CC2)s1	9%	8%	16%	-1.4%	17%	1.0	-2.5
COc1ccccc1N1CCN(C(=O)c2cc(=O)c3cc(C)cc(C)c3o2)CC1	8%[15.4 µM]	6%	6.2%	·	10%	-1.6	-3.4
COc1cccc(N2CCN(Cc3cccnc3)CC2)c1	8%	5%	?	-1.1%	-24%	-0.4	2.9
Cc1cccc(C(=O)NCC2CCN(C(=O)c3cccc(C)c3)CC2)c1	-62%[inhibitor]	-6%	6.2%	1.0%	2%	-2.4	-2.1
CCN(CC)CCNS(=O)(=O)c1ccc2c3c(cccc13)C(=O)N2	-1%[15.4 µM]	-1%	1.6%	0.2%	5%	1.1	-3.1
O=S1(=O)CCOCCCN1Cc1cccc(F)c1	5%	5%	4.8%	-2.3%&0.2%	5%	-0.4	-2.4
O=C(N/N=C/c1cc(Br)cs1)c1c[nH]c2ccccc12	13%	-14%	1.0%	-3.4%	9%	9.6	-11
Cc1cccc(S(=O)(=O)NNC(=O)c2sc(C)nc2C)c1	1%[15.4 µM]	3%	0.5%	·	-2%	1.2	-1.3
CCOC(=O)C(C)Sc1ccc2nnc(CCNS(=O)(=O)c3ccccc3)n2n1 (stereo unspecified)	-30%	-8%	-0.7%&0.8%	-13%&-30%	22%	1.1	12
Cc1cc(C)c(NS(=O)(=O)c2ccc(NC(=O)CCC(=O)O)cc2)c(C)c1	-11%[15.4 µM]	-21%	1.6%	·	18%	-2.0	-1.7
CC(C)C(CO)NC(=O)CC(=O)NC(CO)C(C)C (stereo unspecified)	-23%	7%	?	0.7%	12%	-3.0	-1.3
CN(C)S(=O)(=O)c1ccc(Cl)c(NC(=O)c2ccncc2)c1	-9%	8%	2.1%	0.6%	14%	1.7	-2.5
COCCNC(=O)c1ccc(Cl)c(Cl)c1	-11%	5%	6.8%[38.3 µM]	-0.8%	4%	0.6	-1.2
CC(C)Oc1ccc(C(=O)N(Cc2ccco2)C2CCS(=O)(=O)C2)cc1 (stereo unspecified)	?	1%	5.6%[38.3 µM]	-1.3%	15%	2.0	-3.8
O=C(Cc1ccc(Cl)cc1)NCC(=O)N1CCCCC1	22%[15.4 µM]	12%	2.6%	?	2%	3.3	-4.8
O=[N+]([O-])c1cccc(-c2ccc(/C=N/Nc3nc(N4CCCCC4)nc(N4CCCCC4)n3)o2)c1	-54%[inhibitor]	?	3.5%	·	6%	5.4	5.9
COc1ccc(-c2coc3cc(OC)cc(OC)c3c2=O)cc1	·	-3%	-0.1%&0.4%	-24%	-2%	1.2&-0.9	1.9
O=C1[C@H]2[C@@H](/C=C/c3ccccc3)N3C(=O)CN(CC4CC4)C(=O)[C@@]3(Cc3ccccc3)[C@H]2C(=O)N1c1ccccc1	·	-2%	0.6%	0.5%	14%	4.4	-5.0
O=C1OC2(c3ccccc31)c1ccccc1-c1ccccc12	24%[15.4 µM]	2%	2.6%	0.6%	·	·	-0.8
COC(=O)CCC(=O)N(C)CC1CCCN(CCc2cccc(C(F)(F)F)c2)C1 (stereo unspecified)	-16%	4%	1.3%	-1.9%	-1%	4.5	-1.2
COc1ccc(C(O)c2nc(-c3cccc(C(F)(F)F)c3)cs2)cc1 (stereo unspecified)	·	·	2.8%	0.2%	·	·	-3.7
COC(=O)c1ccc(S(=O)(=O)NCc2ccco2)o1	-42%[inhibitor]	12%	-1.3%	0.4%	12%	3.4	6.8
CCCc1nc2sc3c(c2c(=O)n1NC(=O)CCC(=O)OC)CCCC3	-8%[15.4 µM]	-8%	-0.2%	·	5%	2.7	-1.2
Cc1cccc(C(=O)OC(C)C(=O)Nc2ccc(S(=O)(=O)N3CCCC3)cc2)c1O (stereo unspecified)	3%	-29%	-1.1%	-5.1%	·	·	0.6
COc1ccc(C(=O)n2c(SC)nc3cc4c(cc32)OCCO4)cc1	13%	5%	?	4.4%	-29%	0.6	1.1
O=C(NNC(=O)c1ccc(F)cc1)c1ccncc1	18%	7%	0.6%	-1.4%	9%	-3.5	3.0
O=[N+]([O-])c1ccc(NN=Cc2cccc3ccccc23)cc1	?	4%	1.3%	·	·	·	-2.7
O=C(CCc1nc2ccccc2c(=O)[nH]1)OCC(=O)N1CCc2ccccc21	-1%[15.4 µM]	·	2.5%	·	4%	2.3	0.8
CCOC(=O)c1[nH]c(C)c(CN(Cc2ccco2)C(=O)C(F)(F)F)c1C	-18%	-4%	3.4%	-1.9%	8%	-0.3	-0.5
COc1ccc(CNC(=O)CN2C(=O)NC3(CCCCCC3)C2=O)cc1	-13%	3%	0.9%	-0.3%	·	·	0.1
CC1CN(Cc2ccccc2)c2nc3c(c(=O)[nH]c(=O)n3C)n2C1 (stereo unspecified)	-2%[15.4 µM]	-23%	1.8%	-0.7%	13%	-1.4	1.1
CCc1ccc(N(C(=O)c2csnn2)C(C(=O)NC2CCCC2)c2cccnc2)cc1 (stereo unspecified)	4%[15.4 µM]	4%	5.6%	-5.3%	0%	?	-4.2
CC(/C=C/c1ccccc1)=N/NC(=O)CNC(=O)c1ccc2c(c1)OCO2	-32%	-3%	5.7%	0.0%	12%	-1.3	1.8
CC1=CC(C)(C)N(C(=O)CN2C(=O)CCC2=O)c2ccccc21	-23%	6%	-0.3%	0.8%	10%	2.1	-2.4
CCOC(=O)c1c(-c2ccc(-c3ccccc3)cc2)csc1NC(=O)CCN1CCOCC1	-2%	4%	4.5%	?	-6%	1.1	-4.8
C=CCNc1nc(-c2cccc(OC)c2O)nc2ccccc12	-38%	0%	2.6%	0.0%	11%	2.9	3.9
CN(C)CCNC(=O)C(=O)C1C(=O)Nc2ccccc21 (stereo unspecified)	·	·	·	·	12%	3.2	-5.5
COc1ccc(N2CCN(C(CNS(=O)(=O)c3cccs3)c3cccnc3)CC2)cc1 (stereo unspecified)	-17%	1%	1.8%	-0.4%	10%	-10	-2.5
CC(=O)c1c(C)[nH]c(C(=O)OC(C)C(=O)Nc2cc(S(=O)(=O)N3CCCCC3)ccc2Cl)c1C (stereo unspecified)	9%[15.4 µM]	-17%	3.7%	-1.3%	14%	6.0	-6.3
CN1CCCC1CCNS(=O)(=O)c1ccc(Br)cc1 (stereo unspecified)	-35%[inhibitor]	7%	-0.8%	-1.3%	4%	-2.4	-0.7

Other compounds
compound	gsp ag	gsp antag	PINK1 expr mod	ClpP mod	Sfp PPTase inh	Menin-MLL FL inh	D2 ag
CC(C)CCN=CC1=C(O)CC(c2ccccc2)CC1=O (stereo unspecified)	14%[15.4 µM]	7%	0.7%	·	23%	-4.1	1.3
CCc1c(C)nc2ncnn2c1Nc1ccc(C)cc1	8%[15.4 µM]	0%	-1.3%	0.7%	17%	4.2	-0.8
O=C(CN(CCO)c1ccccc1)NC12CC3CC(CC(C3)C1)C2	-25%	10%	0.2%	2.4%	-4%	4.9	-2.8
CCOc1ccc(C/C(N)=N/n2cnnc2)cc1	-13%	-4%	1.0%[38.3 µM]	-0.5%	25%	1.8	0.6
Cc1nc2c(n1C1CCCCC1)C(=O)c1ccccc1C2=O	?	5%	-0.7%	0.7%	-26%	-4.9	3.6
CCSc1ccccc1C(=O)NCc1cccnc1	?	9%	3.0%	0.4%	-4%	-1.4	0.5
CCc1nc2c(OCc3ccccc3C)cccn2c1N(C)C(=O)c1ccc(C)cc1	·	·	9.7%	-3.9%	·	·	-2.9
COc1ccc(NC(=O)c2ccc(NC(=O)CN3CCN(c4ccccc4OC)CC3)cc2)cc1	17%	·	7.4%	-3.1%	·	·	-2.1
O=C1c2cccc3cccc(c23)C(=O)N1CCN1CCN(CC(O)COCc2ccc(Cl)cc2)CC1 (stereo unspecified)	26%	-13%	-2.3%	-12%	-11%	1.6	-0.9
CCOC(=O)c1c(NC(=O)Cn2nnc(-c3ccc(Cl)cc3)n2)sc(CC)c1C	-25%	3%	-0.7%	-21%	14%	5.2	-2.0
[N-]=[N+]=CC(=O)c1ccnc(C(=O)C=[N+]=[N-])c1	-18%	-8%	0.1%	1.0%	-9%	2.1	-8.4
CCOc1ccccc1NC(=O)c1cnc2n(c1=O)CCS2	5%	11%	0.8%	-0.4%	2%	4.2	-2.2
